Pin1 inhibitor – blocks the human prolyl isomerase Pin1; Q13526; 0.009% of 390,000 active; Potency, µM (highest dose often 115 µM), without a hit: at the highest dose activity, negative = inhibition, hits mostly inhibitors; Pin1 FP peptide displacement, HiFluor488, 10 min; active means well fitted inhibition curve with a large enough effect in the polarisation, with a control signal flat, not every such curve was filed as active; inconclusive means small, poorly fitted or top-dose-only effect, or effect the other way, or a change in a side signal; inactive means no such curve, though single readings can be large or run the other way; the % refers to the polarisation; further: potency means the concentration at half of the fitted maximal effect
Target sequence (Q13526 whole entry, looked up): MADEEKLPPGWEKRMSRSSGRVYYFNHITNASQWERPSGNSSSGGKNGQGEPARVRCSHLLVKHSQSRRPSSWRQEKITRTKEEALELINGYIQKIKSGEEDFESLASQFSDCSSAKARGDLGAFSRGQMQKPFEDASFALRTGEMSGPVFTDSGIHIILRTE
rTrxR1 inhibitor – inhibitors of rat thioredoxin reductase 1; recombinant rTrxR1, NADPH fluorescence consumption, selenite substrate; Potency, µM (doses to about 114 µM), without a hit: at the highest dose activity change, negative = inhibition, usual class: inhibitors; 1% of 390,000 active; O89049; AID 588453; further: potency means the concentration at half of the fitted maximal effect; nearly all actives have a fitted effect of over 65% in size
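Rat TrxR1 (90 nM in the dispensed reagent) was pre-reduced with 400 uM NADPH for 5 min at room temperature, then incubated with compound for 15 min. After 400 uM selenite was added, NADPH fluorescence (Ex 340/Em 450 nm) was followed for 8 min.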
PI4K2A block – blocks human PI4K2A kinase activity; Q9BTU6; purified PI4K2A, ADP-Glo luminescence, 1 h; hits give low values; activity change, negative = inhibition, % at 76.9 µM; 0.13% of 420,000 active; in the data active means activity change below about -50%; inconclusive means mostly about -30% to -49%;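 further: -100% = wells without enzyme as full effect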
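Compounds are screened against recombinant PI4K2A using PI as substrate and ATP, the latter dispensed at 300 microM. Reactions run one hour at ambient temperature before ADP-Glo detection; full inhibition defined by wells lacking enzyme.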
mIDH1 inhibitor – human IDH1 R132H inhibition; IDH1-R132H enzyme, NADPH consumption, diaphorase/resazurin fluorescence; 0.093% of 390,000 active; Potency, µM (titrated, usually from 76.6 µM), for inactives: top-dose activity change, negative = inhibition, hits mostly inhibitors; O75874; further: potency means the concentration at half of the fitted maximal effect; nearly all actives have a fitted effect of over 65% in size
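IDH1-R132H (0.5 ug/mL) preincubated 30 min with compound, then NADPH (0.016 mM) and alpha-KG (2 mM) added; 80 min at RT, pH 7.5. Remaining NADPH coupled via diaphorase/resazurin to fluorescence (540/590 nm); concentration-response curves normalized to no-enzyme control.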
PGK inhibitor – inhibitors of T. brucei phosphoglycerate kinase; PGK/GAPDH coupled, Kinase-Glo luminescence, 60 min; Potency, µM (highest dose often 57.5 µM), without a hit: at the top dose activity change, negative = inhibition, actives largely listed as inhibitors; 0.043% of 380,000 active; AID 602233; further: potency means the concentration at half of the fitted maximal effect; nearly all actives have a fitted effect of over 60% in size
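Recombinant glycosomal PGK reaction used 1,3-bisphosphoglycerate generated in-well by GAPDH (100nM final) in 100mM TEA pH 7.6, 5mM MgCl2, 0.01% Tween-20. After 60 minutes at room temperature, ATP was read by Kinase-Glo Plus luminescence end-point.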
TrxR1 substrate – substrates of rat thioredoxin reductase 1; Potency, µM (series often up to 114 µM), for inactives: top-dose activity change, negative = substrate turnover; 0.01% of 390,000 active; purified TrxR1 substrate turnover, NADPH consumption readout; further: potency means the concentration at half of the fitted maximal effect; nearly all actives have a fitted effect of over 50% in size
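Rat TrxR1, dispensed at 90 nM, was prereduced with 400 uM NADPH (final) for 5 min at ~22 deg C, then incubated with compound 15 min before 400 uM selenite. A first-read NADPH fluorescence drop versus no-compound background flagged substrates.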
GLS inh – glutaminase GLS (human) inhibition. 0.21% of 410,000 active. GLS enzymatic activity, qHTS titration. O94925. Potency, µM (top dose mostly 45.5 µM), without a hit: at the top dose activity change, negative = inhibition, actives largely listed as inhibitors; further: potency means the concentration at half of the fitted maximal effect
Target sequence (O94925 whole entry, looked up): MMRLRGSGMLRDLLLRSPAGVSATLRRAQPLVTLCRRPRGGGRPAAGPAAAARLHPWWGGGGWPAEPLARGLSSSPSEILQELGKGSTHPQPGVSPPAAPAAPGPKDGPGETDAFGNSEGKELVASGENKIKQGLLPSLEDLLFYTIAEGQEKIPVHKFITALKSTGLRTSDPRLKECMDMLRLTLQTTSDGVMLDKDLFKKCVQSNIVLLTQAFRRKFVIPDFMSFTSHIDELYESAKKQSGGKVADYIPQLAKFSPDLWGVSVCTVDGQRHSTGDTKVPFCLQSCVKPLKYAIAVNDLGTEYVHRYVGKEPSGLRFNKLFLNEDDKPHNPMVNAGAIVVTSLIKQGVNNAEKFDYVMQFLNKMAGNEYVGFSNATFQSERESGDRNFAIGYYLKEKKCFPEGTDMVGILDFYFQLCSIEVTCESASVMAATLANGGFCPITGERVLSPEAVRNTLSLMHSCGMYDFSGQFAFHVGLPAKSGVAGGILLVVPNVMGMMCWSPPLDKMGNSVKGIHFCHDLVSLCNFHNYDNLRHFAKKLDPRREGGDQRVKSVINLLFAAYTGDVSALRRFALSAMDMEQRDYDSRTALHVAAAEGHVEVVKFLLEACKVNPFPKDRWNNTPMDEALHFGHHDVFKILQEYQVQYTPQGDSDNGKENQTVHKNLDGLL
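Assay buffer: 45 mM KH2PO4 pH 8.2, 0.02% Tween-20. hKGA acts on L-glutamine (1 mM solution added); product glutamate is reported by an oxidase/peroxidase Amplex Red coupling, with fluorescence taken at baseline and 30 min.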
Active calls of the source: *; i = inactive; ? = inconclusive; . = no result given; [ ] = remark or other dose. Unless noted, the call rests on the fitted dose curve; in most records, active means well fitted curve in the direction sought with a large enough effect; inconclusive means small, poorly fitted or top-dose-only effect, or another doubt; inactive means no such curve, though single readings can be large; an effect the other way counts as inactive or inconclusive. Unless noted, on the % scale 0 is the no-effect control and ±100 the full control effect.

SMILES | Pin1 inhibitor | rTrxR1 inhibitor | PI4K2A block | mIDH1 inhibitor | PGK inhibitor | TrxR1 substrate | GLS inh
CCC(Cn1nnc2ccccc2c1=O)NC(=O)Nc1cccc(Cl)c1 (stereo not drawn) | -2% | 12% | 0 | 16% | 7% | 5% | -11%
Cc1ccccc1OCc1nc(-c2ccc(NC(=O)c3ccc4c(c3)OCO4)cc2)no1 | 15% | 17%[57.1 µM] | -7 | 10% | -4% | 10%[57.1 µM] | -14%
C/C(=N\NC(=O)c1cccs1)c1c(O)cc(C)oc1=O | 0% | 6% | -3 | -6% | i | -11% | 11%
COC(=O)[C@H](C(C)C)N(Cc1ccccc1)S(=O)(=O)CCN1CCN(c2ccccc2)CC1 | ? | 20% | -1 | 11% | -2% | -7% | 8%
CC(C)C(C(=O)OCC(=O)c1ccc2c(c1)NC(=O)CO2)N1C(=O)c2ccccc2C1=O (stereo not drawn) | 2% | 4%[57.1 µM] | 4 | 6% | -1% | 2%[57.1 µM] | -8%
O=C1c2ccccc2C(=O)N1C(CO)C(O)c1ccc([N+](=O)[O-])cc1 (stereo not drawn) | -6% | 16% | -19 | 7% | -7% | 10% | 0%
CCCCN(CCCC)CCCNC(=O)c1cc(-c2ccc(Cl)s2)nc2ccccc12 | 0% | -10% | 2 | 7% | 10% | 43%[activator] | 1%
O=C(NCc1ccc(F)cc1)c1c2c(nc3ccccc13)CCC2 | ? | 4%[57.1 µM] | -11 | 7% | -10% | 7%[57.1 µM] | 1%
COc1ccc(CNc2cccc(F)c2)cc1Br | 4% | -4% | -3 | 4% | 1% | -4% | 17%
COc1cc(OC)c(/C=N/n2c(C)nnc2C)c(OC)c1 | 3% | -1% | 1 | 0% | -5% | -3% | -1%
COc1ccc(/C(O)=C2\C(=O)C(=O)N(c3cc(C)on3)C2c2ccc(OC)c(OC)c2)cc1OC (stereo not drawn) | 7% | 1% | 4 | -2% | 9% | -5% | 1%
COc1ccc(OC)c(-c2csc(N3CCC(c4ccccc4)CC3)n2)c1 | 5% | 17% | -1 | 3% | -8% | 2%[57.1 µM] | -1%
CCOCCCN(Cc1ccco1)S(=O)(=O)c1cc2c(cc1C)NC(=O)CO2 | -6% | 10%[57.1 µM] | 1 | 2% | i | -7%[57.1 µM] | -16%
NC(=O)c1cc(NC(=O)c2ccc(NS(=O)(=O)c3cccs3)cc2)cc(C(N)=O)c1 | 4% | -2% | 2 | -4% | i | -8% | -7%
C=CCn1c(CCNC(=O)c2ccccc2F)nnc1SCC(=O)Nc1nc2ccccc2s1 | -13% | 23% | 8 | 2% | -2% | 2% | -9%
O=C1Nc2cc(C(=O)N3CCc4ccccc4C3)ccc2S/C1=C\c1ccccc1 | 78%[activator] | 5% | -3 | -1% | -9% | -1% | 1%
Cc1ccc(NC(=O)C2CC(Cl)=CCC2C(=O)O)c([N+](=O)[O-])c1 (stereo not drawn) | 0% | 30% | 2 | 7% | -2% | 9% | -1%
C=CCn1c(CCNC(=O)c2cccs2)nnc1SCC(=O)Nc1cccc(C(C)=O)c1 | 1% | -8% | -3 | 9% | -6% | -11% | 17%
CCOC(=O)c1cc(C(=O)OCC)c2cccc(C)n2c1=O | -2% | -35% | -5 | 1% | -7% | 3%[57.1 µM] | -1%
C=CCn1c(CCNC(=O)c2ccccc2F)nnc1SCC(=O)Nc1nc(C)cs1 | -4% | 0%[57.1 µM] | 3 | 0% | -5% | 7%[57.1 µM] | 5%
O=C(NN=Cc1ccc(OC(F)F)cc1)c1ccc(NS(=O)(=O)c2cccs2)cc1 | -2% | 13% | -3 | -8% | i | -14% | 16%
CCOC(=O)N1CCN(C(=O)c2ccc3c(c2)NC(=O)/C(=C\c2cccc(C)c2)S3)CC1 | 35%[activator] | 16% | -6 | 2% | -2% | -7% | -1%
C=CCN(c1ccc(F)cc1)S(=O)(=O)c1cc(C(=O)NC2CCC(O)CC2)ccc1Cl (stereo not drawn) | 2% | -9% | 1 | -15% | 4% | -13% | 4%
Cc1ccc(-n2c(SCC(N)=O)nnc2-c2ccco2)cc1 | -3% | -4% | 2 | -5% | -2% | 2% | -2%
COc1cc(C)c(Cl)c(C)c1S(=O)(=O)NCc1ccc2c(c1)OCO2 | ? | 4% | 3 | 5% | -3% | 0% | 0%
Continued:
SMILES | Pin1 inhibitor | rTrxR1 inhibitor | PI4K2A block | mIDH1 inhibitor | PGK inhibitor | TrxR1 substrate | GLS inh
CC(C)CCn1nnnc1CN1CCN(c2ccccc2)CC1 | -19% | 39%[activator][57.1 µM] | 0 | 7% | 7% | 13%[57.1 µM] | -5%
COc1ccc(/C=C/C(=O)NC(=S)N2CCSCC2)cc1 | -9% | -2%[57.1 µM] | -1 | 1% | -1% | -5%[57.1 µM] | 5%
CC(C)C[C@H](NC(=O)c1nc[nH]c1C(=O)NC1CCN(C(=O)OC(C)(C)C)CC1)C(=O)OC(C)(C)C | ? | -29%[57.1 µM] | 0 | 14% | -9% | -11%[57.1 µM] | 0%
CCc1nn2c(-c3ccco3)ccnc2c1-c1ccccc1 | ? | 6%[11.4 µM] | 0 | 0% | -6% | -4%[11.4 µM] | -3%
CC(=O)Nc1ccc(S(=O)(=O)N[C@@H](C)C(=O)OCC(=O)c2ccc[nH]2)cc1 | 3% | 1%[57.1 µM] | -3 | 5% | -2% | 6%[57.1 µM] | -1%
O=C(N/N=C/c1ccncc1)c1ccc(NS(=O)(=O)c2cccs2)cc1 | 1% | 15%[57.1 µM] | 0 | -2% | -6% | -3%[57.1 µM] | 15%
Cc1cc(C(C)(C)C)c(OC(=O)[C@@H]2OC(c3ccccc3)=C[C@H]2c2ccccc2)c(C(C)(C)C)c1 | ? | -7% | -1 | -8% | 3% | -8% | -3%
CC1CN=C(N(C(=O)Nc2ccccc2)C(C)c2ccccc2)S1 (stereo not drawn) | 5% | -8% | -8 | 18% | i | -10% | -2%
O=C1NC2(CCC3(CC2)OCCO3)NN1c1ccccc1 | 2% | -3%[57.1 µM] | 0 | -6% | 2% | -2%[57.1 µM] | 0%
CC1(C)NC(=O)N(CC(=O)OCC(=O)c2ccc(Br)s2)C1=O | -6% | -6% | -4 | 1% | -9% | 7% | -4%
COc1ccc(-c2nnc(S/C(=C/c3ccc(Cl)cc3)C(=O)O)o2)cc1 | -2% | 25% | 0 | -4% | 6% | 5% | -1%
COc1ccc2cc(C#N)c(N3CCOCC3)nc2c1 | 11% | 14%[57.1 µM] | 2 | 0% | i | 29%[57.1 µM] | -1%
CCOc1ccccc1OCCNC1CCCC1 | 5% | 18% | 0 | 1% | . | 2% | 0%
Cc1cc(-c2ccccc2)nc(SCc2ccc(C(=O)O)o2)n1 | 6% | -11% | -7 | 8% | -8% | -7%[57.1 µM] | 9%
Cc1cc(N/N=C/c2ccc(F)cc2)nc(-n2nc(C)cc2C)n1 | -3% | -12% | 3 | -8% | 8% | -8% | 9%
Cc1nn(-c2ccccc2)c2[nH]c(=O)c(CNCc3ccc4c(c3)OCO4)cc12 | 1% | -16% | -1 | 9% | -7% | 2% | 10%
CCN(CC)C(=O)C1=C(C)Nc2nnnn2C1c1cccnc1 (stereo not drawn) | -2% | 0%[57.1 µM] | -4 | 2% | -5% | 10%[57.1 µM] | 10%
CCc1ccc(C2C(C(=O)O)c3ccccc3C(=O)N2C)cc1 (stereo not drawn) | -4% | 18% | -1 | 1% | . | 11%[57.1 µM] | 5%
COC(=O)CCC(=O)OC1(C)C(=O)C=C2C=C(C3CC3)N(CCc3ccccn3)C=C2C1=O (stereo not drawn) | ? | 31%[57.1 µM] | -6 | 10% | -1% | -4%[57.1 µM] | -12%
CCOc1cc(S(=O)(=O)NCc2ccc3c(c2)OCO3)c(C)cc1C | 1% | 14% | 1 | 7% | -10% | -5% | -7%
CCOc1ccc2c(c1)/C(=C(\C(Cl)=C(Cl)Cl)[N+](=O)[O-])N2 | ? | 3% | -5 | 0% | -4% | 8% | 2%
COc1ccccc1N1C(=O)C2C(C(=O)c3ccccc3)=NN(c3ccc(Br)cc3)C2C1=O (stereo not drawn) | ? | 8% | -7 | -5% | -3% | -6% | -20%
CCOC(=O)c1cc(C#N)c(N2CCCNCC2)nc1C(F)(F)F | 2% | ? | -3 | 0% | -8% | -3% | -7%
CC(=O)Nc1cccc(/C(C)=N/NC(=O)c2ccc(NS(=O)(=O)c3cccs3)cc2)c1 | -7% | 2% | -3 | 10% | -9% | -6% | 0%
O=C1CCC/C(=N/NC(=O)c2ccc(NS(=O)(=O)c3cccs3)cc2)C1 | 4% | -29%[57.1 µM] | -15 | -8% | 0% | 1%[57.1 µM] | ?

Continued (two carried over from the part before).
SMILES | Pin1 inhibitor | rTrxR1 inhibitor | PI4K2A block | mIDH1 inhibitor | PGK inhibitor | TrxR1 substrate | GLS inh
CC(=O)Nc1cccc(/C(C)=N/NC(=O)c2ccc(NS(=O)(=O)c3cccs3)cc2)c1 | -7% | 2% | -3 | 10% | -9% | -6% | 0%
O=C1CCC/C(=N/NC(=O)c2ccc(NS(=O)(=O)c3cccs3)cc2)C1 | 4% | -29%[57.1 µM] | -15 | -8% | 0% | 1%[57.1 µM] | ?
CC/C(CC(=O)C(F)(F)F)=N\NC(=O)/C(C#N)=C/N(C)C | -1% | 8% | -5 | -2% | i | -1% | 2%
O=C(Nc1ccccc1N1CCCCC1)c1ncoc1-c1cccc(F)c1 | -2% | 11% | -4 | -3% | i | -6% | 0%
C/C(=N\NC(=O)c1ccc(NS(=O)(=O)c2cccs2)cc1)c1ccccc1 | -2% | -3% | -5 | 0% | i | -6% | -1%
CCc1ccc(S(=O)(=O)Nc2ccc(-c3nc4cccnc4s3)cc2)s1 | ? | -37% | 0 | -5% | 8% | 255%[activator][57.1 µM] | 5%
COc1ccc(C(C#N)Nc2ccc(C)cc2)cc1 (stereo not drawn) | 1% | -5% | 0 | 6% | -9% | -3% | 1%
O=C(O)C1c2ccccc2C(=O)N(Cc2ccc(F)cc2)C1c1ccncc1 (stereo not drawn) | 1% | 34% | 4 | 1% | i | 3% | -13%
COc1cccc2cc(C(=O)CS(=O)(=O)c3ccc(Cl)cc3)c(=O)oc12 | ? | -20% | -8 | 7% | -11% | 0% | 3%
CC(=O)CSc1nnc(-c2ccco2)n1-c1ccccc1 | 1% | 9%[2.29 µM] | -1 | 5% | -1% | 13%[57.1 µM] | -3%

Full records, looked up by structure.
Shown for Cc1ccc(NC(=O)C2CC(Cl)=CCC2C(=O)O)c([N+](=O)[O-])c1 (stereo not drawn) = Pin1 inhibitor: 0%; rTrxR1 inhibitor: 30%; PI4K2A block: 2; mIDH1 inhibitor: 7%; PGK inhibitor: -2%; TrxR1 substrate: 9%; GLS inh: -1%
Shown for CC1CN=C(N(C(=O)Nc2ccccc2)C(C)c2ccccc2)S1 (stereo not drawn) = Pin1 inhibitor: 5%; rTrxR1 inhibitor: -8%; PI4K2A block: -8; mIDH1 inhibitor: 18%; PGK inhibitor: i; TrxR1 substrate: -10%; GLS inh: -2%

Assay outcomes from PubChem BioAssay.

An excerpt (hit frequency here may not be typical).
